Rango release inh: qHTS Assay for Inhibitors of RanGTP induced Rango (Ran-regulated importin-beta cargo) - Importin beta complex dissociation; hit rate 0.071% among 340,000; Biochemical FRET Rango-importin beta, RanGTP-induced dissociation; AID 540253, 2011; Potency, µM (doses to about 46.1 µM), without a hit: top-dose activity change, negative = inhibition; active means falling FRET ratio curve, often poorly fitted, with flat reads before Ran was added; inconclusive means other falling curves, or compound fluorescence or quenching; inactive means flat or rising ratio curve;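 also: potency is read from the fitted curve at half-maximal effect; % of control where 0% means no effect; nearly all actives have a fitted effect of over 45% in size; -100% = wells without RanGTP and RCC1; the record marks most hits as doubtful in a second field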
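Compounds sat 5 min at room temperature with 0.1 uM Rango biosensor plus 0.25 uM importin beta, then FRET pre-read. RanGTP-RCC1 (0.6 uM Ran, 2mM GTP, 0.2 uM RCC1) added for 45 min, and the CFP/YFP post-read measured blocked complex dissociation.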
miR-21 reporter: qHTS Assay for Modulators of miRNAs and/orActivators of miR-21 | 340,000 tested, under 10 active | Potency, µM (titrated, usually from 38.3 µM), for inactives: at the highest dose reporter change, positive = more light | HeLa miR-21 FLuc reporter, luciferase, 48 h | AID 2288, 2010; active = well fitted rising curve with a large enough effect; inconclusive = small, poorly fitted or top-dose-only effect; inactive = no such curve, though single readings can be large or run the other way;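 also: % of control where 0% means no effect; miR-21 action dims this reporter so a rising signal means less miR-21 action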
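Compounds were titrated across several concentrations (up to approximately 40 uM) and incubated 48 hours with HeLa miR-21-FLuc reporter cells (miR-21 target sequence downstream of FLuc, endogenous miR-21). Readout was firefly luciferase luminescence after lytic detection reagent.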
Rango-impB inh: qHTS Assay for Inhibitors of Rango (Ran-regulated importin-beta cargo) - Importin beta complex formation; Importin subunit beta-1 (Homo sapiens), Q14974; Rango CFP/YFP FRET sensor + importin beta, 45 min; Potency, µM (series often up to 92.2 µM), for inactives: at the top dose inhibition of complex formation; hit rate 0.031% among 340,000; active = rising FRET ratio curve, often small or poorly fitted; inconclusive = mostly compound fluorescence or quenching in the first reads; inactive = flat curves in all reads;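 also: potency is read from the fitted curve at half-maximal effect; 0% = DMSO wells and 100% = buffer wells lacking importin beta; nearly all actives have a fitted effect of over 15% in size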
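FRET biosensor (snurportin 1 IBB flanked by EYFP and cerulean), 50 nM, with compound 5 min, then 0.125 microM importin beta in PBS, 1 mM DTT, 0.02% Tween-20, 0.1% BSA. CFP/YFP ratio read after 45 min at room temperature; pre-read flags interference.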
GLA inh pH 4.5: qHTS Assay for Inhibitors of Human alpha-Galactosidase at pH 4.5. purified enzyme, 4-MU-alpha-Gal fluorescence, pH 4.5. AID 1467, 2008. Alpha-galactosidase A (Homo sapiens), P06280. activity change, negative = inhibition, % at 105 µM. 230,000 tested, under 10 active; inconclusive = small, poorly fitted or top-dose-only inhibition, or a rising curve; inactive = flat fitted curve, though single readings scatter; no compound was filed as active;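 also: 0% = full activity with enzyme and -100% = basal without enzyme; dose as in the result columns while the protocol names 77 µM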
Target sequence (P06280 whole entry, looked up): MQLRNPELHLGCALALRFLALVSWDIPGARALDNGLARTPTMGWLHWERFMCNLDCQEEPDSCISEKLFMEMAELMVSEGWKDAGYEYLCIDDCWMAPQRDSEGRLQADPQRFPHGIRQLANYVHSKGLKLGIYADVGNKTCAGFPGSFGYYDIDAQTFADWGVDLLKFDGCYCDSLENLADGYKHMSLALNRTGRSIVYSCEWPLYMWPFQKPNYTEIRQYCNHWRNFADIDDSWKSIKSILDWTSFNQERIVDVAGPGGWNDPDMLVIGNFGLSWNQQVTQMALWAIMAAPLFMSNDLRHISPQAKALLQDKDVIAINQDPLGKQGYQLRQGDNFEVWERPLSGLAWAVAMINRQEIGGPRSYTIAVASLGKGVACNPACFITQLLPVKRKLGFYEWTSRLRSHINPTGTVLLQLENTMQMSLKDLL
The depositor's hits bear a star; u = inconclusive; x = no result given; & = joins results of further samples. Not all compounds are listed; rates above refer to the full screens.

| Rango release inh | miR-21 reporter | Rango-impB inh | GLA inh pH 4.5 | smiles |
| --- | --- | --- | --- | --- |
| u | -7% | -2.4% | 6 | O=C(O)CCCCCCNC(=O)c1cncc(O)c1 |
| -2% | x | 0.1% | x | C=C[C@@]1(C)CC(=O)[C@]2(O)[C@@]3(C)[C@@H](O)CCC(C)(C)[C@@H]3[C@H](OC(C)=O)[C@H](O)[C@@]2(C)O1 |
| 1% | -3% | 4.2% | x | COc1ccc(Cn2c(=O)[nH]c3cc(C(=O)N4CCN(c5ccc(C(C)=O)cc5)CC4)ccc3c2=O)cc1 |
| 1% | -2% | 1.3% | x | Cc1cc(C)cc(OCC(=O)N(Cc2ccccc2)C2CCS(=O)(=O)C2)c1 (stereo not given) |
| -2% | -9% | 0.5% | -14 | COc1ccc(C(C)=O)cc1COc1ccc(Cl)cc1Cl |
| u | -51% | -4.7% | -2 | CCc1nc(-c2ccc(-c3ccc(OC)cc3)nc2OC)no1 |
| -2% | -1% | 5.7% | 0 | CCC(C)NC(=O)c1cc(C)no1 (stereo not given) |
| 1% | -29% | -3.2% | x | COc1ccc(-c2ccc(SCC(=O)NC3CCCC3)nn2)cc1OC |
| 2% | -3% | 2.7% | x | Cc1cccc(CC2CC(=O)N(c3ccc([N+](=O)[O-])cc3)C2=O)c1 (stereo not given) |
| -17% | -5% | -0.5% | -5 | CC(CN1CCCCC1)NC(=O)c1cc(-c2ccccn2)nc2ccc(Cl)cc12 (stereo not given) |
| 2% | -9% | -0.5% | 0 | CCCCN(C(=O)c1ccco1)c1nnc(-c2cc(OC)c(OC)c(OC)c2)s1 |
| -7% | 3% | -2.6% | 5 | CC(C)(C)NNC(=S)Nc1ccc(S(=O)(=O)N2CCOCC2)cc1 |
| -17% | -1% | -0.8% | -2 | CC(C)(C)c1[nH]ncc1[N+](=O)[O-] |
| -1% | 1% | 4.0% | -15 | O=C(N/N=C/c1ccco1)C1CC1(c1ccccc1)c1ccccc1 (stereo not given) |
| -24% | 6% | u | 5 | O=C(O)C1Nc2c(O)cc(Cl)c([N+](=O)[O-])c2C2C=CCC12 (stereo not given) |
| 14% | -2% | -0.5% | x | Cc1ccc(CNC(=O)c2cc(S(=O)(=O)N3CCOCC3)cn2C)cc1 |
| u | x | -0.4% | x | CCOc1ccc(N2CC(NS(=O)(=O)c3cccnc3)CC2=O)cc1 (stereo not given) |
| 0% | x | 1.2% | x | C=CCC[C@H](Cc1ccc(F)cc1)C(=O)OC[C@H](Cc1c[nH]c2ccccc12)NC(=O)[C@@H](CC=C)CC(=O)N[C@@H](CO)Cc1ccccc1 |
| 13% | -17% | 0.7% | x | CC(C)(C)c1ccc(C(=O)NC(=S)NCc2ccco2)cc1 |
| 1% | -4% | -1.0% | -1 | O=C1CCCc2c1nn(-c1ccccc1)[n+]2[O-] |
| 9% | 0% | -1.5% | x | CCOC(=O)c1c(S(=O)(=O)NCC(=O)Nc2cccc(C)c2)c(C)n(C)c1C |
| -26% | 1% | 3.0% | -16 | CCCS(=O)(=O)c1c(S(=O)(=O)CCC)c2c(N)cccn2c1C(=O)c1ccccc1 |
| 2% | 1% | 0.7% | x | O=C(O)c1cccc(NC(=O)c2cn(-c3ccccc3)nc2-c2ccc([N+](=O)[O-])cc2)c1 |
| 4% | x | -2.8% | x | COc1ccc(OCCOC(=O)CNC(=O)c2ccc(C)cc2)cc1 |

Reformatted with each value named: entries from further up
> Cc1ccc(CNC(=O)c2cc(S(=O)(=O)N3CCOCC3)cn2C)cc1
  Rango release inh: 14%
  miR-21 reporter: -2%
  Rango-impB inh: -0.5%
  GLA inh pH 4.5: x

> CCOc1ccc(N2CC(NS(=O)(=O)c3cccnc3)CC2=O)cc1 (stereo not given)
  Rango release inh: u
  miR-21 reporter: x
  Rango-impB inh: -0.4%
  GLA inh pH 4.5: x

> C=CCC[C@H](Cc1ccc(F)cc1)C(=O)OC[C@H](Cc1c[nH]c2ccccc12)NC(=O)[C@@H](CC=C)CC(=O)N[C@@H](CO)Cc1ccccc1
  Rango release inh: 0%
  miR-21 reporter: x
  Rango-impB inh: 1.2%
  GLA inh pH 4.5: x

> CC(C)(C)c1ccc(C(=O)NC(=S)NCc2ccco2)cc1
  Rango release inh: 13%
  miR-21 reporter: -17%
  Rango-impB inh: 0.7%
  GLA inh pH 4.5: x

Carrying on:
| Rango release inh | miR-21 reporter | Rango-impB inh | GLA inh pH 4.5 | smiles |
| --- | --- | --- | --- | --- |
| 0% | -5% | 2.7% | -8 | CCOC(=O)c1sc(NC(=O)/C=C/c2cnn(C)c2C)c(C(=O)OC(C)C)c1C |
| 0% | 1% | -0.5% | -5 | CC(=O)NC(C)C(=O)OCc1ccc(Cl)cc1Cl (stereo not given) |
| -19% | x | -2.2% | x | CN(Cc1ccccc1)C(=O)c1ccc(NC(=O)C2CCN(C(=O)OC(C)(C)C)CC2)cc1 |
| x | 3% | x | -14 | CSCCC(NC(=O)c1ccccc1)c1nc(-c2ccccc2)no1 (stereo not given) |
| -6% | -2% | -2.0% | 2 | COc1ccc(N(CC(=O)Nc2ccccc2C(=O)N2CCOCC2)S(=O)(=O)c2ccc(F)cc2)cc1 |
| -9% | 13% | -2.1% | -10 | COc1ccc(-c2csc(NC(=O)CCS(=O)(=O)c3ccccc3)n2)c(OC)c1 |
| -3% | 6% | 13% | 7 | CCOC(=O)c1ccc[n+](C(C)C(=O)c2ccc(-c3ccccc3)cc2)c1 (stereo not given) |
| -7% | x | 0.0% | x | C[C@H](CO)N1C[C@H](C)[C@@H](CN(C)S(C)(=O)=O)Oc2c(NC(=O)C3CCCCC3)cccc2C1=O |
| 0% | -15% | -1.4% | -7 | CN(C)/C=C/c1c(C#N)c(=O)ncn1Cc1ccccc1 |
| -2% | 0% | -0.4% | 1 | COc1cc(OC)cc(-c2cc3nc(C4CCN(C(=O)OC(C)(C)C)CC4)cc(=O)n3[nH]2)c1 |
| 0% | 7% | -1.2% | x | O=C(CCS(=O)(=O)c1ccccc1)Nc1nnc(-c2ccco2)o1 |
| 21% | -14% | 4.2% | x | O=[N+]([O-])c1cc(C(F)(F)F)ccc1NCCc1ccncc1 |
| -2% | -58% | 0.0% | -3 | COc1ccccc1NC(=O)Nc1ccc(CC#N)cc1 |
| -14% | x | 6.4% | x | Cn1c(=O)c2[nH]c(CN3CCCCC3)nc2n(C)c1=O |
| 3% | 14% | 0.9% | -3 | Cc1c(C(=O)C(=O)N2CC=C(c3ccccc3)CC2)c2ccccc2n1C |
| 9% | -15% | 7.5% | -1 | CCN(CC)c1ccc(NC(=O)c2ccccc2OCC(=O)OC)cc1 |
| 6% | 15% | -0.8% | -5 | COc1ccc(OC)c(/C=N/NC(=O)C(=O)NCc2cccnc2)c1 |
| 6% | 16% | -3.6% | -11 | Cc1cc(F)ccc1S(=O)(=O)N1CCCOC1CNC(=O)C(=O)NCCc1c[nH]c2ccccc12 (stereo not given) |
| 16% | 11% | -1.1% | -5 | CCOc1cccc(NC(=O)c2ccc(S(=O)(=O)N3CCCC3)cc2)c1 |
| 5% | -3% | -2.6% | -22 | O=C1CN(CC(=O)Nc2cccc(Cl)c2Cl)c2ccccc2N1 |
| -10% | -12% | 0.5% | -6 | Cc1ccc(C2C(C(=O)c3cccs3)=C(O)C(=O)N2c2ccc(S(N)(=O)=O)cc2)cc1 (stereo not given) |
| 2% | x | 0.2% | x | CCOc1ccc(NC(=O)CN(C)C(=O)CCCn2c(=O)oc3ccccc32)cc1OCC |
| -18% | 0% | -1.7% | 2 | CCN(CC)S(=O)(=O)c1cccc(-c2nnc(SCC(=O)NC)n2N)c1 |
| 17% | -2% | -2.4% | -9 | COc1ccc(S(=O)(=O)N(C)CC(=O)Nc2ccc(C(N)=O)cc2)cc1OC |

Part of the list above in a different format:
> Cn1c(=O)c2[nH]c(CN3CCCCC3)nc2n(C)c1=O
  Rango release inh = -14% | miR-21 reporter = x | Rango-impB inh = 6.4% | GLA inh pH 4.5 = x
> COc1ccc(S(=O)(=O)N(C)CC(=O)Nc2ccc(C(N)=O)cc2)cc1OC
  Rango release inh = 17% | miR-21 reporter = -2% | Rango-impB inh = -2.4% | GLA inh pH 4.5 = -9
> O=C1CN(CC(=O)Nc2cccc(Cl)c2Cl)c2ccccc2N1
  Rango release inh = 5% | miR-21 reporter = -3% | Rango-impB inh = -2.6% | GLA inh pH 4.5 = -22
> CCOc1ccc(NC(=O)CN(C)C(=O)CCCn2c(=O)oc3ccccc32)cc1OCC
  Rango release inh = 2% | miR-21 reporter = x | Rango-impB inh = 0.2% | GLA inh pH 4.5 = x

Continuation:
| Rango release inh | miR-21 reporter | Rango-impB inh | GLA inh pH 4.5 | smiles |
| --- | --- | --- | --- | --- |
| 7% | -13% | 2.4% | -1 | Cc1ccccc1NC(=S)N1CCN(Cc2ccccc2)CC1 |
| -6% | -4% | 0.3% | x | O=C(NC1CCCCC1)C(c1ccncc1)N(C(=O)c1ccco1)c1ccc(F)cc1 (stereo not given) |
| 0% | x | 0.3% | x | Cc1ccc(N2C(=O)N(CC(=O)Nc3ccccc3C(F)(F)F)C(=O)C2C)cc1 (stereo not given) |
| -20% | -41% | 2.1% | -12 | N#Cc1c(NC(=O)C2CC(c3c(F)cccc3Cl)=NO2)sc2c1CCC2 (stereo not given) |
| 8% | 11% | -2.1% | -9&3 | CCC1=C(OC(=O)N(CC)CC)N2C(=O)OC(=NCC3CC3)[C@]2(Cc2ccccc2)[C@H]2C1=CC[C@H]1C(=O)N(C)C(=O)[C@H]12 |
| 6% | -2% | -0.3% | 1 | Brc1cc(/C=N/n2cnnc2)oc1Br |
| 14% | 5% | -3.6% | 9 | CNC(=O)CSc1nnc(COc2ccc([N+](=O)[O-])cc2)n1C |
| 5% | x | -4.5% | x | COc1ccc(OCCCC(=O)Nc2cc(S(=O)(=O)N3CCCCC3)ccc2OC)cc1 |
| -2% | 2% | -2.1% | -12 | Cc1ccc(NC(=O)CSCC(=O)N2c3ccccc3CCc3ccccc32)cc1 |
| -8% | x | 0.7% | x | COc1ccc(S(=O)(=O)N(C)C[C@H]2Oc3c(NC(=O)Nc4ccc5c(c4)OCO5)cccc3C(=O)N([C@H](C)CO)C[C@@H]2C)cc1 |
| -16% | 1% | u | -7 | CCCc1cc(C(=O)Cc2ccc(C(=O)OCC)o2)c(O)cc1O |
| -9% | -1% | -1.0% | 9 | CCOC(=O)C1=C(C)OC(N)=C(C#N)C1c1cc(C)sc1C (stereo not given) |
| -6% | -1% | 0.6% | -3 | O=C1NCCCC1C(=O)Nc1ccccn1 (stereo not given) |
| 28% | x | 0.4% | x | Cc1noc(C)c1CSCC(=O)Nc1cc(Cl)ccc1N1CCCCC1 |
| 0% | x | -2.9% | x | CSCCC(NC(=O)c1ccccc1Br)C(=O)NNC(=O)c1ccncc1 (stereo not given) |
| 14% | -2% | 0.1% | 6 | CC(=O)N/C(=C/c1ccc2c(c1)OCO2)C(=O)NCc1ccccc1 |
| 17% | -5% | 0.4% | -2 | CCNC(=S)NCc1ccc(F)cc1 |
| -5% | -6% | -0.2% | -26 | COc1ccccc1-n1nc(C(=O)NCc2ccco2)c2ccccc2c1=O |
| 1% | -1% | -0.6% | x | CC(CN1CCN(C)CC1)OC(=O)c1cccc(F)c1 (stereo not given) |
| 10% | -6% | u | x | CCN1CCN(c2ncnc3sc(C)c(-c4ccccc4)c23)CC1 |

Bioassay records deposited in PubChem BioAssay by National Center for Advancing Translational Sciences (NCATS).
